Vaccinia mCherry: vaccinia inhibition (mCherry reporter); Vaccinia virus mCherry reporter infection, fluorescence; about a quarter of the inactives have no number; AID 720579; actives 0.63% (n = 310,000); Potency, µM (titrated, usually from 36.5 µM), for inactives: at the highest dose activity change, negative = inhibition, most hits filed as inhibitors; active = well fitted inhibition curve with a large enough effect; inconclusive = small, poorly fitted or top-dose-only effect; inactive = no such curve, though single readings can be large or run the other way; tested in A549 cells; further: nearly all actives have a fitted effect of over 35% in size; inactives centre near -10
Vaccinia Venus: inhibitors of vaccinia virus (Venus reporter). Vaccinia virus Venus reporter expression, fluorescence. Potency, µM (highest dose often 36.5 µM), inactives show at the highest dose activity change, negative = inhibition, actives largely listed as inhibitors. actives 0.46% (n = 330,000). AID 720580; active means well fitted inhibition curve with a large enough effect; inconclusive means small, poorly fitted or top-dose-only effect; inactive means no such curve, though single readings can be large or run the other way; tested in A549 cells; further: nearly all actives have a fitted effect of over 30% in size; inactives centre near -10
The depositor's hits bear a star; i = inactive; u = inconclusive; x = no result given; & = joins results of further samples; [ ] = remark or other dose. On the % scale 0 is the no-effect control and ±100 the full control effect; potency means the concentration at half of the fitted maximal effect.

SMILES	Vaccinia mCherry	Vaccinia Venus
O=C(N/N=C/c1cc(Cl)cc([N+](=O)[O-])c1O)c1cccc(S(=O)(=O)N2CCOCC2)c1	i	-11%
COc1cc(OC)cc(-c2nc3nc(C)c(CCC(=O)Nc4ccccc4)c(C)n3n2)c1	-13%	-4%
Cc1ccc(CN2CCCN(Cc3ccccc3C)S2(=O)=O)cc1	i	-18%
COc1cc(Cl)c(CNC[C@H]2O[C@@H](n3cnc4c(=O)[nH]c(N)nc43)[C@H](O)[C@@H]2O)c(Cl)c1O	37%	0%
CCOC(=O)C1CCN(C(=O)C2(NC(=O)Nc3cccc(F)c3)CCCCC2)CC1	-15%	-7%
CC(C)(C)c1cc[n+](C2=C([O-])c3ccccc3C(=O)/C2=N\S(=O)(=O)c2cccs2)cc1	u	u
CCN(CC)CCn1c(NC(=O)c2ccc(C(F)(F)F)cc2)nc2ccccc21	5%	-5%
NS(=O)(=O)Cc1noc2ccccc12	-13%	-17%&-11%
CC1(C)CC(=O)C=C(C(=O)NC2CCCc3c2cnn3-c2cc(F)cc(F)c2)O1 (centres undefined)	i	-16%
CCOc1cc(/C=N/NS(=O)(=O)c2ccc(OC)cc2)ccc1OCCN1CCOCC1	-14%	-8%
CC1Cc2ccccc2N1C(=O)CN1CCC(C(N)=O)CC1 (centres undefined)	i	-12%
Cc1c(C)c2ccc(OCC(=O)NC(Cc3c[nH]c4ccc(O)cc34)C(=O)O)c(C)c2oc1=O (centres undefined)	-3%	0%
Cc1ccc(C(=O)/C=C/C(=O)c2ccc(C)cc2)cc1	-13%	-7%
Cn1c(N)c(C(=O)COC(=O)COc2ccc(Br)cc2)c(=O)n(C)c1=O	-22%	-6%
O=C1NN(c2ccccc2)C(=O)/C1=C\c1ccccc1	-1%	-3%
Brc1ccc(NCc2nnc3n2CCCCC3)cc1	-1%	-14%
c1cnc(Sc2ccc3nnnn3n2)nc1	u	u
O=C(Cn1cc(C(F)(F)F)cc(Cl)c1=O)NCc1ccc(Cl)cc1Cl	i	-4%
C[C@H](OC(=O)NCc1ccc(C(F)(F)F)cc1)[C@@H]1O[C@@]2(C)CCC[C@@H]1O2	-10%	-11%
CSc1nsc(SCC(=O)Nc2ccc(OC(C)=O)cc2)n1	-20%	-10%
Cc1ccc(Cn2c(SCC(=O)NCc3ccccc3)nc3ccsc3c2=O)cc1	0%	-8%
COc1cccc(NC(=O)N2CCCC2C(=O)NCC(C)C)c1 (centres undefined)	-12%	-6%
Cc1cc(N2CCN(c3ccccc3)CC2)nc(-c2ccccc2)n1	-13%	-22%
CCSc1nnc(NC(=O)CSc2nc3c(cc2C#N)CCCC3)s1	-6%	-6%
CC(C)CCNC(=O)C(c1ccco1)N(CC1CCCO1)C(=O)Cn1nnc2ccccc21 (centres undefined)	i[1.46 µM]	-14%
CCCc1cc(C(=O)Nc2cc(Cl)ccc2O)no1	-20%	-12%
C[C@]12C=CC(=O)C=C1CCC1C3CC[C@](O)(C(=O)CO)[C@@]3(C)CC3OC312 (some centres undefined)	-14%	-13%
CC/C(=N\NC(=O)c1cccnc1)c1ccc2c(c1)OCCO2	-23%	-11%
CCOC(=O)c1sc2ncn(CC(=O)Nc3cccc(C)c3)c(=O)c2c1C	-6%	-6%
O=C(c1cccc(NS(=O)(=O)c2cccc(C(F)(F)F)c2)c1)N1CCOCC1	i	-4%
C=CCc1c(C)[nH]c(=O)[nH]c1=O	i	-18%
C/C(=N\NC(=O)c1c(C)nc2ccccn12)c1ccco1	i	-10%
Cc1ccccc1C(=O)N1CCN(c2ccc(NC(=O)c3cccs3)cc2)CC1	-20%	-6%
CC(C)[C@H](NC(=O)c1nn(Cc2ccccc2)c(=O)c2ccccc12)C(=O)O	-6%	2%
C[C@H]1CN=C(N(C)C)N1CCCCc1ccccc1	-1%	-18%
CCn1cc(C(=O)N2CCOCC2)c2ccccc21	i	-7%
Cc1nc(NC(=O)/C=C/c2ccccc2)sc1C(=O)N(C)C	i	-24%
C=CCn1c(SC)nccc1=O	i	-2%
CC(=O)N(C1=C(Cl)C(=O)c2ccccc2C1=O)C1CCCCC1	u	u
Nc1ccc(Nc2ccccc2)cc1	i	-1%
O=C(COc1ccc(Cl)cc1Br)N1CCN(c2ncccn2)CC1	i	-6%
CC(=O)c1cccc(S(=O)(=O)NC2CC2)c1	-1%	-6%
COc1ccc(Cn2c(CCC(=O)Nc3ccc(Br)c(C)c3)nc3cccnc32)cc1	1%	-19%
COc1ccc(CN2CCCC(n3cc(C(=O)N4CCCCC4)nn3)C2)cc1OC (centres undefined)	-8%	5%
CCOC(=O)C1=C(NC(=S)NC(=O)c2ccccc2)c2ccccc2CC1(C)CC (centres undefined)	-17%	-3%
CCN1CCN(c2cc(C)c3cc(NC(=S)N4CC(C)CC(C)C4)ccc3n2)CC1 (centres undefined)	u	u
COc1ccc(CN(CCC(C)C)S(=O)(=O)c2ccccc2Br)cc1	i	-1%
O=C1CCC(C(=O)N2CCSCC2)CN1Cc1cccc(C(F)(F)F)c1 (centres undefined)	-13%	-12%
CN(C)CCCN=Cc1c(O)n(Cc2ccco2)c(=O)[nH]c1=O	-7%	-9%
CC(C)CC(CC(C)C)=NNC(=O)c1ccc(CSc2nncn2C)cc1	-3%	-8%
COc1ccc(C(=O)N2CCC(C(=O)N3CCN(c4ccc(OC)cc4)CC3)CC2)cc1	3%	0%
CC(=O)COc1cc2c(-c3cc4ccccc4o3)cc(=O)oc2cc1C	-15%	u
COc1c(F)cccc1C1=CC(=O)C[C@H](c2ccc(F)cc2)C1	-6%	-20%
COCCn1c(SCC(=O)Nc2ccc(S(=O)(=O)N(C)C)cc2)nc2ccccc21	i	-11%
Cc1cc(C)c2c(=O)cc(CSc3nnc(COc4ccccc4C)n3C)[nH]c2c1	-30%	u
CC1CCCCN1C(=O)c1cnn2c(C(F)(F)F)cc(-c3ccco3)nc12 (centres undefined)	x	-21%
CCC(c1nnnn1Cc1ccccc1)N1CCN(c2ccccc2)CC1 (centres undefined)	-8%	-11%
CC1CN(C(=O)c2cccn(Cc3c(Cl)cccc3Cl)c2=O)CC(C)O1 (centres undefined)	i	-10%
CCOc1ccc(/C=C/C(=O)c2c(O)c3ccccc3oc2=O)cc1	-3%	-10%
O=C(O)C(C(O)c1ccc([N+](=O)[O-])cc1)[n+]1ccccc1 (centres undefined)	-9%	-5%

Another view of some results above:
| structure | Vaccinia mCherry | Vaccinia Venus |
| --- | --- | --- |
| CCOC(=O)C1=C(NC(=S)NC(=O)c2ccccc2)c2ccccc2CC1(C)CC (centres undefined) | -17% | -3% |
| CCN1CCN(c2cc(C)c3cc(NC(=S)N4CC(C)CC(C)C4)ccc3n2)CC1 (centres undefined) | u | u |
| COc1ccc(CN(CCC(C)C)S(=O)(=O)c2ccccc2Br)cc1 | i | -1% |
| O=C1CCC(C(=O)N2CCSCC2)CN1Cc1cccc(C(F)(F)F)c1 (centres undefined) | -13% | -12% |
| CN(C)CCCN=Cc1c(O)n(Cc2ccco2)c(=O)[nH]c1=O | -7% | -9% |
| CC(C)CC(CC(C)C)=NNC(=O)c1ccc(CSc2nncn2C)cc1 | -3% | -8% |
| COc1ccc(C(=O)N2CCC(C(=O)N3CCN(c4ccc(OC)cc4)CC3)CC2)cc1 | 3% | 0% |
| CC(=O)COc1cc2c(-c3cc4ccccc4o3)cc(=O)oc2cc1C | -15% | u |
| COc1c(F)cccc1C1=CC(=O)C[C@H](c2ccc(F)cc2)C1 | -6% | -20% |
| COCCn1c(SCC(=O)Nc2ccc(S(=O)(=O)N(C)C)cc2)nc2ccccc21 | i | -11% |
| Cc1cc(C)c2c(=O)cc(CSc3nnc(COc4ccccc4C)n3C)[nH]c2c1 | -30% | u |
| CC1CCCCN1C(=O)c1cnn2c(C(F)(F)F)cc(-c3ccco3)nc12 (centres undefined) | x | -21% |
| CCC(c1nnnn1Cc1ccccc1)N1CCN(c2ccccc2)CC1 (centres undefined) | -8% | -11% |
| CC1CN(C(=O)c2cccn(Cc3c(Cl)cccc3Cl)c2=O)CC(C)O1 (centres undefined) | i | -10% |
| CCOc1ccc(/C=C/C(=O)c2c(O)c3ccccc3oc2=O)cc1 | -3% | -10% |

(more compounds)
SMILES	Vaccinia mCherry	Vaccinia Venus
Nc1c(S(=O)(=O)O)cc(Nc2ccc(Nc3nc(Cl)nc(Nc4ccc(S(=O)(=O)O)cc4)n3)c(S(=O)(=O)O)c2)c2c1C(=O)c1ccccc1C2=O	-12%	-29%
COc1cc(CNCCN2CCOCC2)ccc1OCc1ccccc1Cl	-12%[1.46 µM]	-15%
CC(NC(=O)/C(=C\c1ccco1)NC(=O)c1ccco1)C(=O)O (centres undefined)	i	-10%
CC(=O)c1cc(F)c(N2CCN(CCC#N)CC2)cc1C	-15%[1.46 µM]	-22%
Cn1nc(C(=O)Nc2cccc(C(F)(F)F)c2)ccc1=O	-12%	-1%
CC1(CCc2ccccc2)NC(=O)N(CC(=O)Nc2ccc(OC(F)F)cc2)C1=O (centres undefined)	u	-21%
Cc1cc(C)c[n+](CC(=O)c2cc3ccccc3oc2=O)c1	-9%	-6%
Cc1ccc(-n2nc(C)c(C(=O)O)c2-n2cccc2)cc1	-8%	-7%
Cc1cc(C(=O)COC(=O)c2ccc(O)cc2O)c(C)n1-c1ccccc1	u	u
O=C(COC(=O)CCCOc1ccc(Cl)cc1Cl)NCc1ccccc1	i	-11%
Cn1ncc2c(=O)n(/N=C/c3ccccc3)cnc21	i	-2%
Cc1ccccc1OC(C)C(=O)NCCC1=CCCCC1 (centres undefined)	i	-1%
Nc1c(Cl)nc(-c2ccccc2)nc1Cl	i	-6%
CN1C(=O)Cc2cc(S(=O)(=O)NCc3c(F)cccc3Cl)ccc21	u	12%
O=C(/C=C/c1ccc2c(c1)OCO2)NCC1CCCO1 (centres undefined)	-2%	10%
Cc1ccc(-n2nc3ccc(NC(=O)c4oc5ccccc5c4C)cc3n2)cc1	-1%	4%
O=C1NC(=O)C2C1C(c1ccccc1)N1C3C(=O)NC(=O)C3C(c3ccccc3)N21 (centres undefined)	-14%	3%
Cc1ccc(N2C(=O)c3cccc4c(N5CCN(C)CC5)ccc(c34)C2=O)c2cccnc12	-20%	-10%
CC1Nc2ccccc2C(=O)N1NC(=O)c1ccc(Br)cc1 (centres undefined)	i	-1%
CCc1cc(=O)n2[nH]c(C)c(-c3ccccc3OC)c2n1	-4%	-7%
COc1ccccc1C(=O)Nc1ccc(OCc2cc(=O)n3cccc(C)c3n2)cc1	-21%	-10%
CC(C)c1nnc(NC(=O)c2ccc(S(=O)(=O)N3CCOCC3)cc2)s1	-8%	9%
CCCOC(=O)NC(CC)COC(=O)Nc1cccc(C)c1C (centres undefined)	x	-17%
CCC(=NCC1CCCO1)c1c(O)[nH]c(=O)[nH]c1=O (centres undefined)	-11%	-3%
CCOC(=O)C1CCCN(C(=O)C(C)(C)Oc2ccc(Cl)cc2)C1 (centres undefined)	-3%	-2%
COc1ccccc1/C=N/OCC(=O)NCc1ccc2c(c1)OCO2	-13%	-5%
CCOC(=O)Cc1csc(N/N=C/c2ccc(C(F)(F)F)cc2)n1	-7%	0%
CCc1nc2cccnc2n1-c1ccc(CC(=O)Nc2ccc(C)cc2)cc1	-14%	-18%
CC1(C)CC(=O)C(C=Nc2cccnc2)=C(O)C1	-10%	-9%
O=C(c1ccccc1)c1sc(N2CCCCCC2)nc1-c1ccccc1	x	u
Cc1cc2oc(C(=O)Nc3ccc(S(=O)(=O)Nc4ncccn4)cc3)cc(=O)c2cc1Cl	-4%[7.34 µM]	29%[7.34 µM]
Cc1ccc(CNC(=O)C(=O)NCC2OCCN2C(=O)c2ccc(Cl)cc2)cc1 (centres undefined)	i	-15%
CC(NC(=O)NNC(=O)c1ccncc1)(C(F)(F)F)C(F)(F)F	5%	-11%
COc1cc(OCc2ccccc2)c2c(CCC(=O)O)cc(=O)oc2c1	-12%	-1%
Cc1c(Cl)cccc1NC(=O)CSc1nc(=O)[nH]c2c1CCC2	-9%[7.34 µM]	-16%[7.34 µM]
CC(=O)c1cccc(NC(=O)C=C(C)C)c1	-18%	-10%

Entries of single compounds as entered above:
`CCc1nc2cccnc2n1-c1ccc(CC(=O)Nc2ccc(C)cc2)cc1` is listed with Vaccinia mCherry = -14%; Vaccinia Venus = -18%
`CCOC(=O)Cc1csc(N/N=C/c2ccc(C(F)(F)F)cc2)n1` is listed with Vaccinia mCherry = -7%; Vaccinia Venus = 0%

Later entries:
SMILES	Vaccinia mCherry	Vaccinia Venus
CCOC(=O)N1CCN(c2nc(-c3cccs3)nc3ccccc23)CC1	u	-12%
Cc1nnc(C)n1/N=C/c1ccccc1	6%	0%
O=C(Nc1cccc(Cl)c1)c1ccc(=O)[nH]n1	-22%	-14%
O=C(CC(=O)N/N=C\c1c(Cl)cccc1Cl)NCc1ccccc1	-18%	-14%
CC(O)(Cc1cccnc1)c1cccs1 (centres undefined)	-8%	-3%
COc1cccc2cc(-c3cc(=O)oc4cc(C)c(OCC(C)=O)cc34)oc12	i[7.34 µM]	-5%[7.34 µM]
Cc1ccc(/C=N/NC(=O)CN2CCN(Cc3ccccc3)CC2)s1	-3%	-7%
N#C/C(=N\Nc1ccc(Cl)cc1)C(N)=S	u	-9%
Cc1ccccc1NC(=O)CN1C(=O)c2ccccc2C1=O	-1%	-14%
Cc1[nH]nc2c1C(c1cccc(OC(=O)N3CCOCC3)c1)C(C#N)=C(N)O2 (centres undefined)	i	-7%
CC(c1ccccc1)N1C(=O)c2ccccc2C1(O)Cc1ccccc1 (centres undefined)	-10%	-17%
CCN(CC)S(=O)(=O)c1ccc2c(c1)c(=O)c(C(=O)NCCc1ccc(OC)c(OC)c1)cn2C	-10%	-13%

From PubChem
